# Assay outcomes as filed in PubChem.
# miR-21 reporter – miR-21 reporter, rising signal; HeLa miR-21 FLuc reporter, luciferase, 48 h; Potency, µM (top dose mostly 38.3 µM), for inactives: top-dose reporter change, positive = more light; 340,000 tested, under 10 active; AID 2288; active = well fitted rising curve with a large enough effect; inconclusive = small, poorly fitted or top-dose-only effect; inactive = no such curve, though single readings can be large or run the other way;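 also: % of control where 0% means no effect; miR-21 action dims this reporter so a rising signal means less miR-21 action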
#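 Using DMEM plus 10% FBS, HeLa miR-21-FLuc cells are incubated with test compounds (final up to about 40uM) for 48 hours; firefly luciferase signal is then imaged following reagent-mediated lysis.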
# GLA inh pH 4.5 – alpha-galactosidase A (human) inhibition, pH 4.5. P06280. purified enzyme, 4-MU-alpha-Gal fluorescence, pH 4.5. activity change, negative = inhibition, % at 105 µM. 230,000 tested, under 10 active. AID 1467; inconclusive = small, poorly fitted or top-dose-only inhibition, or a rising curve; inactive = flat fitted curve, though single readings scatter; no compound was filed as active;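 also: 0% = full activity with enzyme and -100% = basal without enzyme; dose as in the result columns while the protocol names 77 µM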
# Rango dissoc inh – inhibition of RanGTP-driven Rango-importin beta dissociation | O95149+P62826 | Biochemical FRET Rango-importin beta, RanGTP-induced dissociation | Potency, µM (top dose mostly 46.1 µM), inactives show at the highest dose activity change, negative = inhibition | actives 0.071% (n = 340,000) | AID 540253; active means falling FRET ratio curve, often poorly fitted, with flat reads before Ran was added; inconclusive means other falling curves, or compound fluorescence or quenching; inactive means flat or rising ratio curve;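 also: potency is read from the fitted curve at half-maximal effect; % of control where 0% means no effect; nearly all actives have a fitted effect of over 45% in size; -100% = wells without RanGTP and RCC1; the record marks most hits as doubtful in a second field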
#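 Two FRET readings bracket the reaction: one 5 min after compound meets Rango–importin beta, another 45 min after RanGTP-RCC1 (0.6 uM Ran, 0.2 uM RCC1, 2 mM GTP) is added. Only the second defines inhibition.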
# Rango-impB inh – inhibitors of Rango-importin beta complex formation | Q14974 | Rango CFP/YFP FRET sensor + importin beta, 45 min | Potency, µM (titrated, usually from 92.2 µM), inactives show at the highest dose inhibition of complex formation | actives 0.031% (n = 340,000); active = rising FRET ratio curve, often small or poorly fitted; inconclusive = mostly compound fluorescence or quenching in the first reads; inactive = flat curves in all reads;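 also: potency is read from the fitted curve at half-maximal effect; 0% = DMSO wells and 100% = buffer wells lacking importin beta; nearly all actives have a fitted effect of over 15% in size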
# Target sequence (Q14974 whole entry, looked up): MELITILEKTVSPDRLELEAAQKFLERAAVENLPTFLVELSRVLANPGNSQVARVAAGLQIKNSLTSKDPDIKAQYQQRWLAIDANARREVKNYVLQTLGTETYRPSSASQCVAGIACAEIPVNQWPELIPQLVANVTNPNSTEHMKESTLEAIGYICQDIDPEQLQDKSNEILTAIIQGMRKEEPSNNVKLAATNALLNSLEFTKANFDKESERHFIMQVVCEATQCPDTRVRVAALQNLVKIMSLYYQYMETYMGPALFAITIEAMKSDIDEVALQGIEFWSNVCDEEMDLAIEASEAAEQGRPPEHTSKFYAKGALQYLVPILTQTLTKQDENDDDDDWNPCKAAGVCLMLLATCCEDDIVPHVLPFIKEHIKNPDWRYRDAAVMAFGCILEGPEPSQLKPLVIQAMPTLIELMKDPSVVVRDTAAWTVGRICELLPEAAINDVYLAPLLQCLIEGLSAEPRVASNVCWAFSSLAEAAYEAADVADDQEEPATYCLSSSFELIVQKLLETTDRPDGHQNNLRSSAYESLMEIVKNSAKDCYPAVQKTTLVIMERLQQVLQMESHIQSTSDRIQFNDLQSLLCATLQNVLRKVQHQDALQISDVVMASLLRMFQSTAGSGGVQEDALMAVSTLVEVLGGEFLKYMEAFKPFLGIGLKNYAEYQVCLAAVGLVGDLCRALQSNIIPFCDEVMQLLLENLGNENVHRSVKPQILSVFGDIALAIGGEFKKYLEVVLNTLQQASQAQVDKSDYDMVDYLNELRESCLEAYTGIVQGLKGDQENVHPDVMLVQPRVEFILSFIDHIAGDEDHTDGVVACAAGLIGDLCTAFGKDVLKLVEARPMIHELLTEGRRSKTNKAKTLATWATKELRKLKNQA
#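 FRET biosensor Rango (snurportin 1 IBB between N-terminal EYFP and C-terminal Cerulean), 50 nM in PBS/1 mM DTT/0.02% Tween-20/0.1% BSA, preincubated 5 min RT with compound; 0.125 microM importin beta added, 45 min RT, CFP/YFP FRET ratio read.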
# Active calls of the source: *; ? = inconclusive; . = no result given; & = joins results of further samples; [ ] = dose if it differs, or a comment. The list is partial; the hit share may differ from the screen's.
SMILES,miR-21 reporter,GLA inh pH 4.5,Rango dissoc inh,Rango-impB inh
O=C(NCCOCCNC(=O)OCc1ccccc1)OCc1ccccc1,-2%,3[21.1 µM],3%,-0.8%
CSc1nc(-c2ccccc2)c(C#N)c(=O)n1C,-6%,8,-4%,1.2%
COC(=O)c1c(NC(=O)c2ccccc2)sc(C(=O)c2ccccc2)c1C,8%,4,-14%,?
CCc1cc2c(C)cc(=O)oc2cc1Oc1ncccc1[N+](=O)[O-],-5%,-3,.,.
Cc1cc(C)cc(N(CC(=O)NC2CCCC2)C(=O)CNC(=O)c2ccco2)c1,0%,.,-8%,-3.1%
CC(=O)Nc1scc(-c2ccccc2)[n+]1-c1ccc(C)cc1,-4%,-6,12%,3.7%
CC(C)=C(NC(=O)c1ccco1)C(=O)NCCc1nc2ccccc2[nH]1,-11%,4,6%,-1.1%
CC(=O)C1=C(C)Nc2ncnn2C1c1ccccc1F (stereo unspecified),-1%,.,-4%,-0.3%
CN(CC(=O)Nc1ccccc1C(F)(F)F)C(=O)c1cc(Cl)nc2ccccc12,.,.,-7%,4.9%
CCOc1cc2[nH]c(=S)n(CCC(=O)NCc3ccc(OC)cc3)c(=O)c2cc1OCC,-2%,2,7%,-0.7%
CC(=O)OCCN(CCCn1c(-c2ccncc2)nc2ccccc21)c1nc(-c2ccc(C)cc2)cs1,3%,.,-7%,-6.2%
O=C(NCC(=O)N1CCN(c2ccccc2O)CC1)c1ccc(Br)o1,.,.,0%,-1.1%
Cc1sc2nc(CSCC(=O)N(C)c3ccccc3)[nH]c(=O)c2c1C,-3%,5,-18%,?
CCOC(=O)c1cn2c(C)cccc2n1,-12%,-2,2%,1.5%
COc1ccc(NC(=O)N2CCCC2C(=O)NCCc2ccccc2)cc1 (stereo unspecified),-13%,.,-3%,0.3%
COc1cc(OC)cc(-c2c(-c3ccsc3)c3cc(Br)ccc3n2C)c1,.,.,-19%,1.7%
COC(=O)N/N=C\c1cc2c(cc1Br)OCO2,-6%,4,-9%,5.6%
CC(=O)c1ccc(NC(=O)Cn2cnc(S(=O)(=O)N3CCCCC3)c2)cc1,0%,.,-11%,5.2%
Cc1ccc(NC(=O)NC2CC(=O)N(c3ccc4c(c3)OCCO4)C2)c(C)c1 (stereo unspecified),.,.,-5%,-1.9%
Cc1cc(OCC(=O)NNC(=O)c2cccs2)ccc1Br,2%,.,22%,-1.2%
COc1ccccc1-n1c(C)nnc1SCC(=O)NCc1ccccc1,0%,14,4%,2.8%
O=C(Nc1nc(-c2ccc3c(c2)OCO3)cs1)C1CC1,-46%,5,-19%,-1.5%
Cc1c(C(=O)Nc2cccc(Cl)c2)oc2ccc(S(=O)(=O)N3CCC4(CC3)OCCO4)cc12,1%,-13,-1%,-1.5%
Cc1oc2c(c(C)cc3oc(=O)c(CC(=O)N[C@H](C(=O)O)C(C)C)c(C)c32)c1C,0%,.,19%,-1.1%

# Record cards (already shown):
# COc1cc(OC)cc(-c2c(-c3ccsc3)c3cc(Br)ccc3n2C)c1 as listed: miR-21 reporter: .; GLA inh pH 4.5: .; Rango dissoc inh: -19%; Rango-impB inh: 1.7%
# Cc1oc2c(c(C)cc3oc(=O)c(CC(=O)N[C@H](C(=O)O)C(C)C)c(C)c32)c1C as listed: miR-21 reporter: 0%; GLA inh pH 4.5: .; Rango dissoc inh: 19%; Rango-impB inh: -1.1%

# In another format: 4 of the compounds above.
> COC(=O)N/N=C\c1cc2c(cc1Br)OCO2
  miR-21 reporter: -6%
  GLA inh pH 4.5: 4
  Rango dissoc inh: -9%
  Rango-impB inh: 5.6%
> CC(=O)c1ccc(NC(=O)Cn2cnc(S(=O)(=O)N3CCCCC3)c2)cc1
  miR-21 reporter: 0%
  GLA inh pH 4.5: .
  Rango dissoc inh: -11%
  Rango-impB inh: 5.2%
> Cc1ccc(NC(=O)NC2CC(=O)N(c3ccc4c(c3)OCCO4)C2)c(C)c1 (stereo unspecified)
  miR-21 reporter: .
  GLA inh pH 4.5: .
  Rango dissoc inh: -5%
  Rango-impB inh: -1.9%
> Cc1cc(OCC(=O)NNC(=O)c2cccs2)ccc1Br
  miR-21 reporter: 2%
  GLA inh pH 4.5: .
  Rango dissoc inh: 22%
  Rango-impB inh: -1.2%

# (cont.)
SMILES,miR-21 reporter,GLA inh pH 4.5,Rango dissoc inh,Rango-impB inh
O=C(O)c1ccc(NCc2cccnc2)cc1,0%,1,27%,4.6%
O=C(O)CCCN1C(=O)NC2NC(=O)NC21 (stereo unspecified),-5%,3,-7%,-0.6%
NC(=O)Cc1nc2scc(-c3ccc(Cl)cc3)c2c(=O)[nH]1,-3%,3,?,?
CCc1ccc(CN(C)Cc2nc(Cc3cccc(C(F)(F)F)c3)no2)nc1,1%,-7,2%,3.0%
CC(C)(C)C(=O)N1CCC(O)(CS(=O)(=O)c2ccc(Cl)c(Cl)c2)CC1,1%,0,-7%,0.8%
O=C(/C=C/c1ccc(OC(F)F)cc1)OCC(=O)N1CCN(C(=O)c2ccco2)CC1,-4%,-7,-3%,-3.2%
Cc1cc(N2C(=O)C(O)=C(C(=O)c3ccc(C)o3)C2c2ccc(OCc3ccccc3)cc2)no1 (stereo unspecified),-11%,.,?,?
O=C(NC(=S)Nc1ccccc1N1CCOCC1)c1ccc(-c2cccc(Cl)c2)o1,-2%,1,1%,2.4%
COc1ccc(N2C(=O)[C@@H]3[C@H](C2=O)[C@H]2c4ccccc4C=CN2[C@@H]3C(C)=O)cc1,-3%,0,?,?
CCCc1nc2nc(C)c(NS(=O)(=O)c3ccc4c(c3)CCCC4)c(=O)n2[nH]1,5%,.,11%,-2.4%
COC(=O)c1ccc(C(=O)N=c2sccn2C)cc1,-72%,.,5%,-0.3%
CCC(C)(C)n1nnnc1C(c1ccc(Cl)cc1)N1CCN(C)CC1 (stereo unspecified),-11%,-8,24%,-0.8%
Cc1cccc(C)c1NC(=O)CN(C)C(=O)c1ccc(COc2ccccc2)cc1,-26%,.,5%,-0.4%
CC(=O)c1ccc(NC(=O)c2ccc(S(=O)(=O)c3ccccc3)cc2)cc1,-9%,-11,-19%,0.1%
Cn1nc(NC(=O)CC23CC4CC(CC(C4)C2)C3)c2c(F)cccc21,5%,6,8%,-2.5%
CCN(CC)c1ccc(/C=N/N2CCN(Cc3ccccc3Cl)CC2)cc1,0%,.,-2%,-0.2%
CCCCS(=O)CC(O)COc1ccc(C(C)(C)C)cc1 (stereo unspecified),-16%,-5,2%,-0.6%
C/C(N)=C(/C#N)C(=O)COc1ncnc2ccccc12,1%,2,-1%,-0.8%
O=C(CSc1nc2cc(Cl)ccc2c(=O)n1Cc1ccco1)Nc1ccc(S(=O)(=O)N2CCOCC2)cc1,9%,-22,-13%,?
CCOc1ccc(NS(=O)(=O)c2ccc(C(=O)N3CCCCCC3)cc2)cc1,.,.,1%,-1.4%
O=C(CCS(=O)(=O)c1ccccc1)N1CCN(c2ccccc2)CC1,-43%,.,3%,2.8%
C=CCn1c(CSCc2ccccc2)nnc1SCC(=O)N1CCN(c2ccccc2)CC1,6%,-4,-12%,-2.6%
Cc1ccc(CCNC(=O)c2cc(S(=O)(=O)N3CCOCC3)cn2C)cc1,2%,.,-19%,-0.8%
O=C(Cc1ccc(-c2ccccc2)cc1)NCCN1CCOCC1,-5%,4,2%,0.6%

# Four entries out of the list above, ordered by the value under Rango dissoc inh, rising.
SMILES,miR-21 reporter,GLA inh pH 4.5,Rango dissoc inh,Rango-impB inh
C=CCn1c(CSCc2ccccc2)nnc1SCC(=O)N1CCN(c2ccccc2)CC1,6%,-4,-12%,-2.6%
CCN(CC)c1ccc(/C=N/N2CCN(Cc3ccccc3Cl)CC2)cc1,0%,.,-2%,-0.2%
CCOc1ccc(NS(=O)(=O)c2ccc(C(=O)N3CCCCCC3)cc2)cc1,.,.,1%,-1.4%
O=C(CCS(=O)(=O)c1ccccc1)N1CCN(c2ccccc2)CC1,-43%,.,3%,2.8%

# (more compounds)
SMILES,miR-21 reporter,GLA inh pH 4.5,Rango dissoc inh,Rango-impB inh
CCOC(=O)c1ccc(NC(=O)CSc2nnc(C3CCCCC3)n2C)cc1,-14%,-11,-10%,-1.4%
CCCOCCOC(=O)C1=C(C)NC(=O)NC1c1cc(Cl)c(O)c(OC)c1 (stereo unspecified),-6%,-3,-3%,0.9%
COc1cccc(/C=N/NC(=O)CC(=O)NCCc2ccccc2)c1OC,3%,2,-4%,-1.5%
COc1ccc(CC(=O)Nc2ccc(C)c(S(=O)(=O)N3CCCCCC3)c2)cc1,.,.,-4%,-1.4%
CCC[C@@H]1C[C@@]1(CCC)[C@@H](NC(=O)c1ccccc1)c1ccc(C(=O)OC)cc1,-1%,-6&-14,-2%,-0.4%
COc1ccc(Br)c(-c2nnc(CS(=O)(=O)c3ccccc3)o2)c1,-71%,.,1%,0.9%
CCCC(=O)NCCc1cc2ccc(C)c(C)c2[nH]c1=O,-7%,6,-7%,-0.4%
CCOC(=O)c1cnc2c(Cl)cccc2c1NCCN(C)C,-8%,-1,-11%,2.8%
Cc1ccc(C(=O)OCC(=O)N(C)c2ccccc2)cc1C,-13%,.,5%,0.6%
O=c1[nH]c2cnccc2n1-c1ccccc1,-19%,2,-6%,1.5%
COc1ccc2c(c1)c([C@@H]1[C@H](C)[C@H]3CCCC[C@H]3CN1S(=O)(=O)c1ccc(C)cc1)cn2C,.,.,0%,-1.5%
COCCN(C(=O)CNC(=O)c1ccco1)C(C(=O)NC1CCCC1)c1cccc(OC)c1 (stereo unspecified),-2%,.,-6%,-1.3%
Cc1ccc(CN(C)C(=O)COC(=O)CSc2ccc([N+](=O)[O-])cc2)cc1,.,.,-8%,-0.5%
C=CCN(c1cccc(C(F)(F)F)c1)S(=O)(=O)c1cccc(C(=O)OCC(=O)NC)c1,-8%,-23,-3%,3.8%
CC(=O)[C@@H]1[C@@H]2C(=O)N(c3ccccc3F)C(=O)[C@@H]2[C@H]2c3ccccc3C=NN12,-18%,?,10%,?
O=C(/C=C/c1cccc(Br)c1)NCC1CCCCC1,-12%,-18,0%,-3.5%
CC(Oc1cc2oc(=O)c3c(c2cc1Cl)CCCC3)C(=O)NCC1CCC(C(=O)O)CC1 (stereo unspecified),-4%,.,-3%,0.3%
C=CCn1c(SCC(=O)NCC2CCCO2)nc2c([nH]c3ccccc32)c1=O (stereo unspecified),5%,.,-4%,-0.6%
CNC[C@H]1Oc2c(NC(=O)c3ccc(-c4nccs4)cc3)cccc2C(=O)N([C@@H](C)CO)C[C@@H]1C,.,.,6%,-2.8%
COc1ccc(CC(=O)N2N=C(C)CC2(O)c2cccnc2)cc1 (stereo unspecified),-11%,-5,-9%,-1.9%
O=C(CSc1nnc(NC(=O)c2ccccc2)s1)NC1CCCC1,-33%,.,1%,-1.3%
Cc1nnc(SCc2nnc(-c3ccc(Cl)cc3)o2)n1-c1ccccc1,-12%,0,3%,6.1%
O=C(Cc1c(F)cccc1Cl)Nc1ccccc1N1CCCCC1,4%,0,9%,-2.7%
CCn1c(=O)c(C(=O)Nc2ccccc2S(N)(=O)=O)c(O)c2ccccc21,-48%,0,13%,3.8%
